Assay outcomes as filed in PubChem.
ASAP1 inh: blocks human ASAP1-stimulated Arf1 GTP hydrolysis; GDP FP detection; inhibition, % at 16.5 µM; 360,000 compounds, 0.19% hits; in the data active = inhibition above about 25%;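 note: 0% = vehicle with enzyme and substrate and 100% = no enzyme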
PLC-beta3 inh: blocks human PLC-beta3 enzyme activity | Purified PLC-beta3, fluorogenic substrate, fluorescence | 370,000 compounds, 0.18% hits | AID 720704 | inhibition, % at 12.2 µM | Q01970; in the data active = inhibition above about 11%;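 note: 0% = median of compound wells on plate and 100% = full blocker control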
ADAM17 inh: inhibits human ADAM17. recombinant ADAM17, EDANS/DABCYL FRET peptide cleavage. inhibition, % at 6.95 µM. 370,000 compounds, 0.83% hits;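 active = inhibition above the mean of compounds lying between control limits plus 3 SD, set per campaign, cut at about 8.5% in these data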;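 note: 0% = DMSO-only wells as the low control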
Target sequence (P78536 215-824 limits assumed): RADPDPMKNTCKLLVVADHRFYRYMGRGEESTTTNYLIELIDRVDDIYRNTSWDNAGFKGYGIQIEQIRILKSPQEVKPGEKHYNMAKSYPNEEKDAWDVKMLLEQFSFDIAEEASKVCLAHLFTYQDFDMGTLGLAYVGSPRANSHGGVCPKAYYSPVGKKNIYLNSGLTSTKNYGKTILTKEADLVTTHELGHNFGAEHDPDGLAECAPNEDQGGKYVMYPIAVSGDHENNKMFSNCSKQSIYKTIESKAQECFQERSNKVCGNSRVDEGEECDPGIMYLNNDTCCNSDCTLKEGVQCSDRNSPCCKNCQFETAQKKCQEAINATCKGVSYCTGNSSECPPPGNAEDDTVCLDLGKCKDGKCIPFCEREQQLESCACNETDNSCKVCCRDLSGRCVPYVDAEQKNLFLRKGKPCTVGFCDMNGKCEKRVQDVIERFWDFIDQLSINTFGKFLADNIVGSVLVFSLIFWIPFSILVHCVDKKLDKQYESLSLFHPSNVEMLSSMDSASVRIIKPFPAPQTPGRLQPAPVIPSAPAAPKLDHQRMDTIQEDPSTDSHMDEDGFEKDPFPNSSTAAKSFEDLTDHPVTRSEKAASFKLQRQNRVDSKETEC
Tn7 DDE FP: DD(E)-Tn7 binding inhibition, primary FP screen. P02675. FP displacement of FITC-Tn7 peptide from fibrin DD(E); 0% = median of compound wells per plate. inhibition, % at 8.3 µM. 370,000 compounds, 0.13% hits;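 active = inhibition above the mean of compounds falling within the control limits plus 3 SD of them, cut at about 14% in these data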;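 note: 0% = plate median of compound wells and 100% = 10 µM Aha-Tn7 peptide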
Target sequence (P02675 whole entry, looked up): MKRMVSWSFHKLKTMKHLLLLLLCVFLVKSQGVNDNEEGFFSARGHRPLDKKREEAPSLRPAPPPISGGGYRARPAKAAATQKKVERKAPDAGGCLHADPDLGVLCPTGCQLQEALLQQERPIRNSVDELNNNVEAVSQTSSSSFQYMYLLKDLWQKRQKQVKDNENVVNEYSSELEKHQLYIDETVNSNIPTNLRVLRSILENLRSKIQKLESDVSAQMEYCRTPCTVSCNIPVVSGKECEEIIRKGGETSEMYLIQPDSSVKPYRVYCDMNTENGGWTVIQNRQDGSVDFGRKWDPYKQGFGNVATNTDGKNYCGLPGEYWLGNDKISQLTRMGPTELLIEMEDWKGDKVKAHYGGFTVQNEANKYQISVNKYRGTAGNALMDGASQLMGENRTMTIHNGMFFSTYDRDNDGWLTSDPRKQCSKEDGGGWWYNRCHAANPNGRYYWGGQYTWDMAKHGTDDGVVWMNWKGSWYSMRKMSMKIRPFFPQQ
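Test system: human clot-derived fibrin DD(E) complex / Quantity: 2 µM final DD(E) protein / Incubation: 10 min plus 3 h, room temperature / Measured by: fluorescence polarization / Benchmarks: high control of 10 µM Aha-Tn7 peptide / Replicates: singlicate testing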
PLCg1 inh: inhibitors of human phospholipase C gamma1. inhibition, % at 12.2 µM. 370,000 compounds, 0.84% hits. AID 720700. P19174. purified PLC-gamma1, fluorogenic substrate, fluorescence; in the data active = inhibition above about 9.5%
UHRF1 MBD2 ctr: blocks human UHRF1 binding to methylated DNA; Q96T88; UHRF1 binding to methylated oligo, TR-FRET; 370,000 compounds, 0.75% hits; inhibition, % at 4.4 µM; in the data active = inhibition above about 21%;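 note: UHRF1 SRA domain binding a hemimethylated CpG hairpin DNA probe; 0% = median of test compound wells and 100% = reference inhibitor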
ARFGAP1 inhibitor: inhibitors of rat ARFGAP1 | Arfgap1-stimulated ARF1 GTP hydrolysis, GDP FP detection | 360,000 compounds, 0.26% hits | Q62848 | AID 651572 | inhibition, % at 16.5 µM;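 active = inhibition above a per-plate limit, mean inhibition of low control wells plus 3 SD, cut at about 25% in these data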;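 note: 0% = DMSO wells with enzyme and 100% = wells lacking Arfgap1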
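Assay system: Rat Arfgap1 GAP domain (His6, aa 1-136), purified enzyme | Buffer or medium: HEPES 25 mM pH 7.5, NaCl 150 mM, MgCl2, DTT | Schedule: GTP hydrolysis reaction 2 h at 25 °C | Signal: FP of antibody-bound GDP Alexa 633 tracer, ex 620/em 688 nm | Measure: Percent inhibition of Arfgap1-stimulated GTP hydrolysis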
MBD2 DNA inh: blocks human MBD2 binding to methylated DNA. Q9UBB5. AID 686964. inhibition, % at 4.4 µM. TR-FRET, MBD2 binding to methylated oligonucleotide. 370,000 compounds, 0.31% hits; in the data active = inhibition above about 13%
Tn6 DDE FP: disrupts Tn6 cyclic peptide binding to fibrin D-Dimer-E complex | Fibrin DD(E) TRITC-Tn6 fluorescence polarization displacement | inhibition, % at 8.3 µM | 370,000 compounds, 0.21% hits | P02675 | AID 720509;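 active = inhibition above a per-campaign cutoff: mean of compounds within control limits plus 3 SD, cut at about 15% in these data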;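 note: 0% = median of all compound wells on the plate and 100% = blocking peptide control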
* hit, by the source's call; & = joins results of further samples.

Labels used below: A = ASAP1 inh; B = PLC-beta3 inh; C = ADAM17 inh; D = Tn7 DDE FP; E = PLCg1 inh; F = UHRF1 MBD2 ctr; G = ARFGAP1 inhibitor; H = MBD2 DNA inh; I = Tn6 DDE FP
> COc1ccc(C(=O)NCC(=O)N2CCCC(C(F)(F)F)C2)cc1OC (stereo not given)
  A: 11; B: -9; C: -2; D: -3; E: 2; F: 0; G: -5; H: 8; I: -2
> COc1ccccc1NS(=O)(=O)c1cc(C(=O)N2CC(C)CC(C)C2)ccc1C (stereo not given)
  A: 4; B: 0; C: -4; D: -1; E: 1; F: 5; G: 10; H: 1; I: 1
> CC(C)(C)NC(=O)CON=C1c2ccccc2-c2ccccc21
  A: 18; B: -14; C: 2; D: 1; E: -8; F: -2; G: 12; H: -2; I: -2
> Cc1cc(C)n(CC(=O)N/N=C/c2cc(Br)cc([N+](=O)[O-])c2O)n1
  A: -3; B: 3; C: 0; D: 2; E: 0; F: -6; G: 5; H: -8; I: 1
> CCOCCCNC(=S)NCCCNc1nc2c(C)c(C)ccc2cc1C#N
  A: 21; B: -98; C: -59; D: -2; E: -81; F: -2; G: 2; H: 0; I: -4
> CC/C(=N\n1nnnc1Nc1ccccc1)c1ccccc1
  A: -4; B: 1; C: -5; D: 2; E: -1; F: -1; G: 5; H: 1; I: -4
> COc1cccc(OCc2cc(C(=O)N(C)CCOc3ccc(C)cc3)no2)c1
  A: 6; B: -3; C: 4; D: -3; E: 0; F: -3; G: -4; H: 3; I: 1
> CCc1nnc(NS(=O)(=O)c2ccc(NS(=O)(=O)c3ccccc3[N+](=O)[O-])cc2)s1
  A: 4; B: -2; C: -1; D: 4; E: 4; F: 3; G: -1; H: 0; I: 3
> Cc1cc(C)n(C(=O)C(C)n2nc([N+](=O)[O-])c(Br)c2C)n1 (stereo not given)
  A: -6; B: 1; C: 1; D: 1; E: -2; F: 0; G: -4; H: -2; I: 5
> CN(C(=S)SCc1ccccc1)C1CCS(=O)(=O)C1 (stereo not given)
  A: -3; B: 3; C: 3; D: -6; E: 3; F: 2; G: -1; H: 3; I: 2
> O=C(Nc1cccnc1)c1cccc(F)c1
  A: 5; B: 1; C: -2; D: 1; E: 0; F: -4; G: -2; H: -2; I: 3
> CCOC(=O)c1ccc(NC(=O)CSc2nc3c(c(=O)n2CC)SC(C)C3)cc1 (stereo not given)
  A: -14; B: 5; C: 2; D: -3; E: 2; F: -1; G: 9; H: -1; I: 1
> CC(C)C(=O)N1CCN(C2=NS(=O)(=O)c3ccccc32)CC1
  A: 7; B: 2; C: -1; D: 2; E: 4; F: -4; G: 3; H: -1; I: 4
> CC(=O)N1CCN(c2ccc(OC[C@H]3CO[C@](Cn4ccnc4)(c4ccc(Cl)cc4Cl)O3)cc2)CC1
  A: -15; B: -3; C: -1; D: 1; E: -94; F: 0; G: -2; H: 0; I: -4
> COc1ccc(CN2CCN(Cc3nc4ccccc4s3)CC2CCO)c(C)c1C (stereo not given)
  A: -5; B: 1; C: 3; D: -6; E: 1; F: 4; G: -7; H: -1; I: 6
> CCOc1ccc(C2C(C(=O)c3ccc(C)o3)=C(O)C(=O)N2Cc2cccnc2)cc1 (stereo not given)
  A: 2; B: -37; C: 6; D: 1; E: -10; F: -8; G: 0; H: -1; I: -2
> N=c1c2c(-c3ccccc3)c(-c3ccccc3)n(Cc3ccccc3)c2ncn1CCCO
  A: 1; B: -6; C: 0; D: -4; E: -6; F: 3; G: 6; H: 3; I: 0
> CC(C(=O)NN=C(c1ccccc1)c1ccccc1)N1CCCC1 (stereo not given)
  A: -17; B: 2; C: 0; D: -7; E: 1; F: 1; G: 9; H: -4; I: 0
> O=C(NCc1ccc(F)cc1)C(=O)c1cn(CC(=O)N2CCCC2)c2ccccc12
  A: 7; B: -6; C: -2; D: -9; E: -2; F: 2; G: 14; H: 0; I: 4
> COCCCC/C(=N\OCCN)c1ccc(C(F)(F)F)cc1
  A: -7&0&-5&5; B: 0&0&4&-1; C: -7&0&-4&-2; D: 5&2&7&-5; E: -1&3&2&1; F: 2&3&-1&1; G: 2&-9&-3&11; H: 2&-1&4&1; I: -5&-6&-3&5
> CCN(c1ccccc1)S(=O)(=O)c1ccc(C(=O)NCC(c2cccs2)N(C)C)cc1 (stereo not given)
  A: 16; B: -4; C: -3; D: 7; E: -1; F: 2; G: 4; H: 0; I: -13
> O=C(c1nnsc1S(=O)c1ccc(Cl)cc1)N1CCOCC1 (stereo not given)
  A: -6; B: 2; C: -2; D: 0; E: 7; F: -1; G: -1; H: 0; I: 8
> O=C(Oc1ccccc1)c1c(Cl)cccc1P(=O)(O)O
  A: -5; B: 0; C: -5; D: -1; E: 1; F: 0; G: 8; H: 7; I: -4
> Cc1ccnc(NC(=O)CCC(=O)N(CC(=O)NC(C)(C)C)c2ccc3c(c2)OCO3)c1
  A: -12; B: -4; C: 1; D: 4; E: -4; F: 0; G: 13; H: 2; I: 2
> CCN1CCN(C(=O)NCc2ccccc2)CC1
  A: -1; B: -1; C: -4; D: -4; E: 2; F: 1; G: 1; H: 0; I: -3
> O=C(CNC(=S)N(CCCN1CCOCC1)Cc1cccs1)NCc1ccccc1
  A: -10; B: -11; C: -5; D: 4; E: 1; F: 3; G: 7; H: 0; I: -4
> O=C(NCc1ccccc1Cl)c1ccccc1Oc1ccccc1
  A: -8; B: 1; C: 1; D: 5; E: -1; F: 0; G: -13; H: 0; I: -4
> C[C@H]1[C@H](C)CC[C@]2(C(=O)O)CC[C@]3(C)C(=CC[C@@H]4[C@@]5(C)CC[C@H](O)C(C)(C)[C@@H]5CC[C@]43C)[C@H]12
  A: 11; B: -3; C: -1; D: -2; E: 3; F: -4; G: 9; H: -1; I: 3
> O=C1OCC(c2ccccc2)=C1c1ccccc1
  A: -9; B: -10; C: -2; D: 5; E: -3; F: 21*; G: 1; H: 22*; I: 4
> Cc1ccc2nc(-c3ccccc3)cc(C(=O)NCC3CCCO3)c2c1 (stereo not given)
  A: 13; B: -57; C: -114; D: 8; E: -37; F: 2; G: 5; H: 5; I: -4

In another format: entries from further up
ASAP1 inh,PLC-beta3 inh,ADAM17 inh,Tn7 DDE FP,PLCg1 inh,UHRF1 MBD2 ctr,ARFGAP1 inhibitor,MBD2 DNA inh,Tn6 DDE FP,smiles
7,-6,-2,-9,-2,2,14,0,4,O=C(NCc1ccc(F)cc1)C(=O)c1cn(CC(=O)N2CCCC2)c2ccccc12
-7&0&-5&5,0&0&4&-1,-7&0&-4&-2,5&2&7&-5,-1&3&2&1,2&3&-1&1,2&-9&-3&11,2&-1&4&1,-5&-6&-3&5,COCCCC/C(=N\OCCN)c1ccc(C(F)(F)F)cc1
16,-4,-3,7,-1,2,4,0,-13,CCN(c1ccccc1)S(=O)(=O)c1ccc(C(=O)NCC(c2cccs2)N(C)C)cc1 (stereo not given)
-6,2,-2,0,7,-1,-1,0,8,O=C(c1nnsc1S(=O)c1ccc(Cl)cc1)N1CCOCC1 (stereo not given)
-5,0,-5,-1,1,0,8,7,-4,O=C(Oc1ccccc1)c1c(Cl)cccc1P(=O)(O)O
-12,-4,1,4,-4,0,13,2,2,Cc1ccnc(NC(=O)CCC(=O)N(CC(=O)NC(C)(C)C)c2ccc3c(c2)OCO3)c1
-1,-1,-4,-4,2,1,1,0,-3,CCN1CCN(C(=O)NCc2ccccc2)CC1
-10,-11,-5,4,1,3,7,0,-4,O=C(CNC(=S)N(CCCN1CCOCC1)Cc1cccs1)NCc1ccccc1
-8,1,1,5,-1,0,-13,0,-4,O=C(NCc1ccccc1Cl)c1ccccc1Oc1ccccc1
11,-3,-1,-2,3,-4,9,-1,3,C[C@H]1[C@H](C)CC[C@]2(C(=O)O)CC[C@]3(C)C(=CC[C@@H]4[C@@]5(C)CC[C@H](O)C(C)(C)[C@@H]5CC[C@]43C)[C@H]12
-9,-10,-2,5,-3,21*,1,22*,4,O=C1OCC(c2ccccc2)=C1c1ccccc1
13,-57,-114,8,-37,2,5,5,-4,Cc1ccc2nc(-c3ccccc3)cc(C(=O)NCC3CCCO3)c2c1 (stereo not given)

Carrying on.
Labels used below: A = ASAP1 inh; B = PLC-beta3 inh; C = ADAM17 inh; D = Tn7 DDE FP; E = PLCg1 inh; F = UHRF1 MBD2 ctr; G = ARFGAP1 inhibitor; H = MBD2 DNA inh; I = Tn6 DDE FP
> COc1ccc(C(=O)Nc2ccc(N3CCCC3)cc2)cc1OC
  A: 15; B: -15; C: -4; D: 3; E: -8; F: -2; G: -15; H: -7; I: -12
> CCN1CCN(C(=O)CS(=O)Cc2nc(-c3ccc(OC)cc3)oc2C)CC1 (stereo not given)
  A: -8; B: -1; C: 0; D: 4; E: 2; F: -1; G: 9; H: 5; I: 6
> CCOC(=O)c1ccc(NC(=O)CCOc2ccc(OC)cc2)cc1
  A: -4; B: -8; C: -1; D: -2; E: -3; F: 3; G: -2; H: 5; I: 0
> CC(Sc1nc2ccccc2s1)C(=O)N1CCOCC1 (stereo not given)
  A: 0; B: -2; C: -3; D: 2; E: 2; F: 10; G: -9; H: 9; I: -6
> CC(=O)NC1(NC(C)=O)CCN(C)C(c2ccccc2)C1C (stereo not given)
  A: -1; B: 1; C: -2; D: -6; E: -1; F: 0; G: -6; H: -6; I: 8
> CC(=O)Nc1nc(CCN2C(=O)c3ccccc3C2=O)cs1
  A: 15; B: -2; C: -1; D: -1; E: 1; F: 0; G: -3; H: -1; I: 6
> Cc1ccc(NC(=O)Cn2nc(C)c3ccccc3c2=O)cc1F
  A: 7; B: 0; C: 1; D: 0; E: 0; F: 5; G: 6; H: 4; I: 1
> Cc1cc2n(c(=O)c1C#N)CCCN2c1ccccc1
  A: 0; B: -150; C: -10; D: -8; E: -114; F: -5; G: 0; H: -1; I: 2
> CCOc1cc(C2C(C(=O)c3ccco3)=C(O)C(=O)N2CC2CCCO2)ccc1O (stereo not given)
  A: 0; B: -6; C: -1; D: -5; E: -2; F: -3; G: 10; H: -3; I: -1
> CN1N=C(N)c2cn(C3OC(COP(=O)(O)O)C(O)C3O)c3ncnc1c23 (stereo not given)
  A: -5; B: -223; C: -72; D: -4; E: -175; F: -3; G: 15; H: -8; I: 3
> COc1ccc(Cl)cc1NC(=O)C[n+]1cccc(C)c1
  A: -6; B: 4; C: 2; D: 5; E: 3; F: 1; G: -10; H: -7; I: 2
> CCCCn1c(N)c(N(Cc2ccccc2OC)C(=O)CN2C(=O)NC3(CCCC3)C2=O)c(=O)[nH]c1=O
  A: 5; B: -1; C: -9; D: -6; E: -2; F: 1; G: 11; H: -1; I: 2
> O=C(O)c1ccc(Cl)c(S(=O)(=O)Nc2ccccc2N2CCOCC2)c1
  A: 8; B: -1; C: -4; D: -6; E: -2; F: 0; G: -3; H: 4; I: -2
> COc1cccc(NC(=O)N(C2CCCCC2)C(C)c2cccs2)c1 (stereo not given)
  A: 0; B: 3; C: -2; D: -8; E: 3; F: 3; G: -2; H: -2; I: 0
> CC1(C)N=C(SCC(=O)Nc2ccccc2)C(c2ccc(Cl)cc2)=N1
  A: 1; B: 2; C: -1; D: 5; E: -1; F: 7; G: -15; H: -7; I: 0
> CC1C/C(=N/O)C(C)CN1 (stereo not given)
  A: 5; B: 0; C: -5; D: 6; E: -2; F: 6; G: 0; H: 7; I: 3
> COC(CNC(=O)c1ccc(N2CCCC2=O)cc1)OC
  A: 1; B: 2; C: -2; D: -2; E: 1; F: 0; G: 17; H: -7; I: -7
> CCCNC(=O)c1ccccc1NC(=O)COc1ccc(OC)cc1
  A: 0; B: 4; C: -2; D: -5; E: 1; F: 2; G: -6; H: 3; I: -7

This is a subset; count on the stated rates, not on these rows.
